# GLA inh pH 4.5: qHTS Assay for Inhibitors of Human alpha-Galactosidase at pH 4.5. Alpha-galactosidase A (Homo sapiens), P06280. purified enzyme, 4-MU-alpha-Gal fluorescence, pH 4.5. activity change, negative = inhibition, % at 105 µM. 230,000 tested, under 10 active; inconclusive = small, poorly fitted or top-dose-only inhibition, or a rising curve; inactive = flat fitted curve, though single readings scatter; no compound was filed as active;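 note: 0% = full activity with enzyme and -100% = basal without enzyme; dose as in the result columns while the protocol names 77 µM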
# Rango release inh: qHTS Assay for Inhibitors of RanGTP induced Rango (Ran-regulated importin-beta cargo) - Importin beta complex dissociation; actives 0.071% (n = 340,000); Potency, µM (doses to about 46.1 µM), without a hit: at the highest dose activity change, negative = inhibition; AID 540253, 2011; Biochemical FRET Rango-importin beta, RanGTP-induced dissociation; Snurportin-1 (Homo sapiens) + GTP-binding nuclear protein Ran (Homo sapiens) + Importin …; active means falling FRET ratio curve, often poorly fitted, with flat reads before Ran was added; inconclusive means other falling curves, or compound fluorescence or quenching; inactive means flat or rising ratio curve;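 note: potency is the fitted concentration of half-maximal effect; % of control where 0% means no effect; nearly all actives have a fitted effect of over 45% in size; -100% = wells without RanGTP and RCC1; the record marks most hits as doubtful in a second field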
#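 Recombinant Rango FRET biosensor (EYFP–snurportin 1 IBB–cerulean CFP10) at 0.1 uM premixed with 0.25 uM importin beta in PBS, 1 mM DTT, 0.02% Tween-20, 0.1% BSA. Compound added 5 min; RanGTP-RCC1 (0.6 uM Ran, 2 mM GTP, 0.2 uM RCC1) then triggers release, read at 45 min.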
# Rango-impB inh: qHTS Assay for Inhibitors of Rango (Ran-regulated importin-beta cargo) - Importin beta complex formation | Importin subunit beta-1 (Homo sapiens), Q14974 | Rango CFP/YFP FRET sensor + importin beta, 45 min | Potency, µM (doses to about 92.2 µM), for the others: at the highest dose inhibition of complex formation | actives 0.031% (n = 340,000) | AID 540263, 2011; active = rising FRET ratio curve, often small or poorly fitted; inconclusive = mostly compound fluorescence or quenching in the first reads; inactive = flat curves in all reads;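 note: potency is the fitted concentration of half-maximal effect; 0% = DMSO wells and 100% = buffer wells lacking importin beta; nearly all actives have a fitted effect of over 15% in size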
# Target sequence (Q14974 whole entry, looked up): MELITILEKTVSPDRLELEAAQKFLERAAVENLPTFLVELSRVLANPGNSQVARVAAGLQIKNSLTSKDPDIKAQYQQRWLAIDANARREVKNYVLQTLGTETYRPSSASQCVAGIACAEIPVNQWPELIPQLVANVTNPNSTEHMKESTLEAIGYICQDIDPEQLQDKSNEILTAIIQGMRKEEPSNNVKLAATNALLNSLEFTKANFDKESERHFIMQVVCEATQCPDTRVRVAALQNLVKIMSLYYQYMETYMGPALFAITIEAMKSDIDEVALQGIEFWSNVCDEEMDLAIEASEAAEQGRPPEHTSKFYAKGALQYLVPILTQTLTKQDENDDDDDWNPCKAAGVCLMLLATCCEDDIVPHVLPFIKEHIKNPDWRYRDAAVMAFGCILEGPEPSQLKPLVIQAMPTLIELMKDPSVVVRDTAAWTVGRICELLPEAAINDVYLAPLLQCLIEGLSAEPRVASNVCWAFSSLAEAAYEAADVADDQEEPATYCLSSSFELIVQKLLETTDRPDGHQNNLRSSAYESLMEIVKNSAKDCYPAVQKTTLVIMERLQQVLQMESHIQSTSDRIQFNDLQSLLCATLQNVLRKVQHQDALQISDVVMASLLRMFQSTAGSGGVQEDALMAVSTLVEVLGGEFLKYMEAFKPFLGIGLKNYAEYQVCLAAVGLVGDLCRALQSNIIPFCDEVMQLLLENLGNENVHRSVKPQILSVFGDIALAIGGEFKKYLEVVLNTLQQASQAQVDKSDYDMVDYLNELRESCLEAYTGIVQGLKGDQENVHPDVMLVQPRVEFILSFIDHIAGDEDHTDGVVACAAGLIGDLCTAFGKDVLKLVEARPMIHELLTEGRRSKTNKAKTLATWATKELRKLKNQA
#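 Inhibition scored from the CFP 486 nm/YFP 530 nm FRET ratio 45 min after adding 0.125 microM importin beta to 50 nM Rango biosensor preincubated 5 min with compound (room temperature, PBS with DTT, Tween-20, BSA). No-importin wells as positive control.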
# miR-21 FLuc: qHTS Assay for Modulators of miRNAs and/orActivators of miR-21; 340,000 tested, under 10 active; HeLa miR-21 FLuc reporter, luciferase, 48 h; Potency, µM (titrated, usually from 38.3 µM), without a hit: top-dose reporter change, positive = more light; AID 2288, 2010; active = well fitted rising curve with a large enough effect; inconclusive = small, poorly fitted or top-dose-only effect; inactive = no such curve, though single readings can be large or run the other way;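 note: % of control where 0% means no effect; miR-21 action dims this reporter so a rising signal means less miR-21 action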
#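 HeLa miR-21-FLuc reporter line, endogenous miR-21; 2000 cells/well in DMEM/10% FBS; compound titration up to ~40uM final, 48 h, 37 degree Celsius; luciferase detection reagent, 15 min lysis, CCD luminescence.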
# An asterisk follows results filed as active; ? = inconclusive; . = not tested or not shown; & = joins results of further samples.
SMILES,GLA inh pH 4.5,Rango release inh,Rango-impB inh,miR-21 FLuc
O=C(NCCCN1CCOCC1)C1CCCN(S(=O)(=O)N2CCCCC2)C1 (stereo not drawn),.,4%,-0.3%,-4%
COc1cc(C(=O)NC2CCN(C)CC2)ccc1Nc1ncc2c(n1)N(C1CCCCC1)CCC(=O)N2C,.,1%,0.2%,.
COc1ccc(Cl)cc1S(=O)(=O)NCCCn1ccnc1,.,?,?,0%
CCN(CC)CC(=O)Nc1c(C#N)cnn1-c1ccccc1,-3,?,?,-2%
O=C(c1cccs1)N(Cc1cccc(F)c1)C1CCS(=O)(=O)C1 (stereo not drawn),.,2%,-0.6%,-3%
Cc1nnc(NC(=O)CSc2nnc(NC(=O)C(C)(C)C)s2)s1,8,-9%,0.4%,0%
O=C(NC(=S)N1CCN(c2ccc([N+](=O)[O-])cc2)CC1)c1ccco1,3,-1%,-0.8%,-3%
O=C1CSC(=Nc2ccc(Cl)cc2)N1Cc1cccnc1,-2,-3%,2.1%,-10%
C=C(C)CNC(=S)NN=C1c2ccccc2-c2ccccc21,-7,2%,-0.4%,1%
CC(=O)c1cc(F)c(N2CCN(C(=O)c3ccco3)CC2)cc1C,7,5%,?,-28%
Nc1nc(SCc2ccc(Cl)cc2)[nH]c(=O)c1-c1ccccc1,1,3%,-2.3%,-39%
O=C1C(Nc2cccc(O)c2)=C(N2CCCCC2)C(=O)c2ccccc21,4,-8%,-4.1%,8%
O=C(NCCN1C(=O)S/C(=C\c2ccccc2)C1=O)c1cc(S(=O)(=O)N2CCOCC2)c(Cl)cc1Cl,3,1%,-5.4%,?
CCOc1ccc2[nH]c(=O)c(CN(Cc3cccnc3)C(=O)Nc3ccccc3OC)cc2c1,3,20%,0.6%,0%
O=C(N/N=C/c1ccsc1)c1ccc2c(c1)OCO2,.,0%,-1.4%,.
Cc1ccc(NC(=O)C2CCN(S(=O)(=O)c3cccc4nonc34)CC2)nc1,2,-7%,?,21%
CCc1ccc(C(=O)COC(=O)c2ccco2)cc1,.,12%,1.2%,-31%
CC(C)(C)CC(=O)Nc1cc(S(=O)(=O)N2CCOCC2)ccc1N1CCCC1,-7,5%,4.2%,-2%
O=C(Nc1cccc(-c2cn3ccccc3n2)c1)c1ccccc1,-8,-17%,0.1%,-24%
CCN(CC)CCCN1C(=O)C(=O)/C(=C(/O)c2ccc3c(c2)OCCO3)C1c1ccc(C)o1 (stereo not drawn),1,.,.,-18%
Cc1ccc([N+](=O)[O-])cc1NC(=O)CN(C1CCCCC1)S(=O)(=O)c1ccc(Cl)cc1,-12,6%,1.0%,6%
COC(=O)c1c(NC(=S)Nc2cc(OC)c(Cl)cc2OC)sc2c1CCCCC2,-4,?,0.1%,0%
Cc1ccc(NC(=O)CCC(=O)N/N=C/c2coc3ccc(F)cc3c2=O)cc1,.,10%,-2.0%,.
O=C(CSc1nnc(-c2ccncc2)n1C1CCCCC1)Nc1ccccc1,2,9%,4.6%,-3%
CCc1noc(C)c1C(=O)OCC(=O)NC(=O)c1ccccc1,.,11%,5.2%,0%

# Overlap with the part before: five entries, then new ones.
SMILES,GLA inh pH 4.5,Rango release inh,Rango-impB inh,miR-21 FLuc
Cc1ccc([N+](=O)[O-])cc1NC(=O)CN(C1CCCCC1)S(=O)(=O)c1ccc(Cl)cc1,-12,6%,1.0%,6%
COC(=O)c1c(NC(=S)Nc2cc(OC)c(Cl)cc2OC)sc2c1CCCCC2,-4,?,0.1%,0%
Cc1ccc(NC(=O)CCC(=O)N/N=C/c2coc3ccc(F)cc3c2=O)cc1,.,10%,-2.0%,.
O=C(CSc1nnc(-c2ccncc2)n1C1CCCCC1)Nc1ccccc1,2,9%,4.6%,-3%
CCc1noc(C)c1C(=O)OCC(=O)NC(=O)c1ccccc1,.,11%,5.2%,0%
CCCCN(CC)Cc1ccc(CNC(=O)Nc2ccccc2)o1,5,2%,-5.1%,3%
COC(=O)c1ccc(CSc2nnc(CNC(=O)c3ccccc3F)o2)o1,11,13%,4.2%,-6%
C(=C1/CCCC2=C1Nc1ncnn1C2c1ccccc1)/c1ccccc1 (stereo not drawn),10,.,.,?
COCCN1C=C2C(=O)C(C)(OC(=O)C3CCCC3)C(=O)C(c3ccccc3)=C2C=C1CCCC(=O)OC (stereo not drawn),11&-6,-28%,?,1%
COc1ccc(CC(=O)OCC(=O)N(CC(C)C)c2c(N)n(Cc3ccccc3)c(=O)[nH]c2=O)cc1,.,-24%,-2.3%,.
Cc1nc2ccc(NC(=O)c3cccc(S(=O)(=O)N4CCOCC4)c3)cc2s1,.,-15%,?,.
CCc1nnc(SC(C)C(=O)Nc2nccs2)n1C (stereo not drawn),.,-2%,2.2%,0%
Cc1cccc(NC(=O)CNC(=O)COC(=O)CCS(=O)(=O)c2ccccc2)c1C,.,-3%,0.9%,0%
O=C(c1ccco1)[C@@H]1[C@@H]2C(=O)N(c3ccccc3)C(=O)[C@@H]2C2c3ccccc3C=CN21 (stereo partly drawn),4,?,?,-15%
COC(=O)c1ccc(CSc2nnc(Nc3ccc(C)cc3)s2)o1,-1,3%,-0.2%,-11%
O=C1C2ON(c3ccccc3)C(c3ccncc3)C2C(=O)N1c1ccc(N2CCOCC2)cc1 (stereo not drawn),-2,4%,0.0%,-3%
Cc1ccc(NC(=O)Nc2nnc(-c3ccncc3)s2)cc1C,2,-5%,?,-2%
NS(=O)(=O)c1ccc(N2CCCCCC2)c([N+](=O)[O-])c1,8,-22%,?,5%
Cc1ccc(C(c2ccc(C)c(C)c2)C(O)C2OC(=O)C(O)C2O)cc1C (stereo not drawn),.,?,-1.2%,.
CSc1nsc(/C=C/Nc2ccc(O)cc2C)c1C#N,-5,?,?,-5%
COc1ccc(N(CC(=O)Nc2cccc(C)c2)S(=O)(=O)c2c(C)n[nH]c2C)cc1,4,-16%,-3.6%,-2%
O=C(N/N=C/c1ccccc1)c1ccc(CN2C(=O)c3cccc4cccc2c34)cc1,0,?,?,-10%
Cn1c(C(=O)NCCCN2CCOCC2)cc2c(=O)n(C)c3ccccc3c21,-9,4%,1.1%,-5%
CCOc1cccc(CN2CCCC(CNC(=O)c3cccc(OC)c3OC)C2)c1 (stereo not drawn),.,-15%,-1.6%,-4%
Cc1cc(C)n2ncc(C(=O)Nc3ccc4c(c3)OCO4)c2n1,-4,10%,-0.8%,-6%
CN(C(=O)COC(=O)c1ccc(Cl)c(N)c1)c1ccccc1,0,18%,3.7%,-16%
CC(Oc1ccc(Cl)cc1)c1ccnc(N)n1 (stereo not drawn),5,-4%,-1.4%,-10%
CCc1ccc(OCC(O)CN2CCN(c3ccccn3)CC2)cc1 (stereo not drawn),.,14%,-2.3%,8%
COc1ccc(NC(=O)N(C)C[C@H]2Oc3ccc(NC(=O)Cc4ccccc4)cc3C(=O)N([C@H](C)CO)C[C@@H]2C)cc1,.,-1%,1.8%,.
CC(=O)c1sc(N2CCOCC2)nc1-c1ccccc1,-5,-7%,0.1%,-2%

# An excerpt from above with just miR-21 FLuc:
SMILES	miR-21 FLuc
Cc1cccc(NC(=O)CNC(=O)COC(=O)CCS(=O)(=O)c2ccccc2)c1C	0%
O=C(c1ccco1)[C@@H]1[C@@H]2C(=O)N(c3ccccc3)C(=O)[C@@H]2C2c3ccccc3C=CN21 (stereo partly drawn)	-15%
COC(=O)c1ccc(CSc2nnc(Nc3ccc(C)cc3)s2)o1	-11%
O=C1C2ON(c3ccccc3)C(c3ccncc3)C2C(=O)N1c1ccc(N2CCOCC2)cc1 (stereo not drawn)	-3%

# Remaining list, next part
SMILES,GLA inh pH 4.5,Rango release inh,Rango-impB inh,miR-21 FLuc
COc1ccc(N=C2SC(CC(=O)Nc3ccccc3OC)C(=O)N2Cc2ccco2)cc1 (stereo not drawn),4,2%,1.8%,6%
CC(C)CCn1cnc2c(cnn2-c2ccc(F)cc2)c1=O,-3,1%,-4.3%,-25%
Cc1ccc(S(=O)(=O)N2CC(C)C(=O)CC2C)cc1 (stereo not drawn),.,12%,-0.6%,2%
COc1ccc(S(=O)(=O)Nc2ccc3c(c2)C(=O)N([C@H](C)CO)C[C@H](C)[C@@H](CN(C)S(=O)(=O)c2c(C)noc2C)O3)cc1,.,-1%,-0.5%,.
COc1ccc(S(=O)(=O)NCC2CCCN(C(=O)c3cccnc3C)C2)cc1 (stereo not drawn),-5,-8%,-0.1%,2%
CCOC(=O)C(NCc1ccccc1OC)(NC(C)=O)C(F)(F)F (stereo not drawn),-6,3%,3.9%,1%
CCOC(=O)[C@@H]1[C@H]2COc3cc(OC)ccc3[C@H]2N2C(=O)N(c3ccc(C)cc3)C(=O)[C@]12C,.,23%,-2.6%,.
CCN(CC(=O)NCc1cccs1)c1nnnn1-c1ccccc1,13,8%,2.8%,25%
O=C(Nc1ccc(OCC(=O)N2CCC(Cc3ccccc3)CC2)cc1)c1ccco1,-22,0%,-5.8%,8%
CC1=NN(C(N)=S)C(=O)C1N=Nc1c(Br)cc(Br)cc1Br (stereo not drawn),.,3%,0.2%,-19%
N#Cc1ccccc1OCC(=O)Nc1ccc2c(c1)OCCCO2,.,11%,3.4%,-74%
COCCNc1nnc(SCC(=O)NC(=O)c2ccccc2OC)s1,.,-6%,0.8%,0%
O=C1c2ccccc2C(Nc2ccc(F)c(Cl)c2)N1Cc1ccco1 (stereo not drawn),-4,-4%,-1.0%,-8%
COC(=O)CCC(=O)c1oc2ccccc2c1N,4,47%,-0.5%,-23%
COCCNC(=O)CCc1c(C)nc2c(-c3ccc(F)cc3)c(C)nn2c1C,-5,-12%,-0.5%,2%&-3%
Cc1ccn2c(CN3CCOCC3)c(-c3ccccc3)nc2c1,-1,3%,-1.8%,-49%
CC1CCN(C(=O)CN2C(=O)NC(C)(c3ccc4ccccc4c3)C2=O)CC1 (stereo not drawn),.,7%,-0.4%,.
Cc1ccccc1-c1nc(CS(=O)CC(=O)NCCN2CCOCC2)c(C)o1 (stereo not drawn),3,-4%,-5.7%,-1%
CCC1=C(OC(=O)N(CC)CC)N2C(=O)OC(=NCC(=O)OC)[C@]2(C)[C@H]2C1=CC[C@H]1C(=O)N(C)C(=O)[C@H]12,10&-6,-4%,-1.4%,1%
CN(Cc1ccc(C(C)(C)C)cc1)C(=O)C1CSC2(C)CCC(=O)N12 (stereo not drawn),.,-13%,0.2%,.
O=[N+]([O-])c1ccc(Sc2n[nH]c(-c3ccco3)n2)nc1,-9,3%,2.2%,-1%
CCOc1ccc(-c2c[n+]3c(n2-c2ccccc2)CCCCC3)cc1,6,5%,3.5%,29%
Cc1nn(-c2ccccc2)c(N)c1Sc1ccccc1[N+](=O)[O-],-3,25%,0.1%,0%
CN(C)c1cccc(C(=O)NCc2ccccc2)c1,11,2%,7.3%,-49%
O=S(=O)(Nc1ccc2cn[nH]c2c1)c1ccccc1,7,24%,-4.0%,1%
COc1ccc(S(=O)(=O)N2CCOC2CNC(=O)C(=O)NCC(C)C)cc1 (stereo not drawn),.,-3%,2.9%,0%
COc1ccc(S(=O)(=O)Nc2cccc(-c3ccc4nncn4n3)c2)c(OC)c1,.,11%,-1.0%,.
CN1CCN(c2ccccc2NC(=O)c2sc3ccccc3c2Cl)CC1,-2,5%,-0.5%,-12%

# Entries of single compounds, looked up by structure. Values in the order: GLA inh pH 4.5, Rango release inh, Rango-impB inh, miR-21 FLuc
# O=[N+]([O-])c1ccc(Sc2n[nH]c(-c3ccco3)n2)nc1 as listed: -9, 3%, 2.2%, -1%
# COCCNC(=O)CCc1c(C)nc2c(-c3ccc(F)cc3)c(C)nn2c1C as listed: -5, -12%, -0.5%, 2%&-3%
# COc1ccc(N=C2SC(CC(=O)Nc3ccccc3OC)C(=O)N2Cc2ccco2)cc1 (stereo not drawn) as listed: 4, 2%, 1.8%, 6%

# A portion of the library; rates above refer to the full screens.
